# PAFAH2 FP inh: PAFAH2 (human) inhibition. AID 492956. 0.99% of 340,000 active. inhibition, % at 3.39 µM. Q99487. recombinant PAFAH2, FP-rhodamine activity probe, fluorescence polarization;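 active means inhibition above the mean over all tested compounds plus 3 SD, cut at about 30% in these data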;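 further: inhibitors block probe labeling of enzyme so polarization drops; 0% = enzyme with DMSO and 100% = wells lacking PAFAH2 protein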
# PAFAH1B2 inh: inhibitors of human PAFAH1B2 | P68402 | AID 492953 | recombinant PAFAH1B2, FP-rhodamine activity probe, fluorescence polarization | 1.2% of 340,000 active | inhibition, % at 3.39 µM;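 active means inhibition above the mean of all tested compounds plus 3 SD, cut at about 24% in these data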;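 further: 0% = enzyme with DMSO and 100% = wells lacking PAFAH1B2; many of its hits are not listed in these tables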
# PAFAH1B3 inh: PAFAH1B3 (human) inhibition; recombinant PAFAH1B3, FP-rhodamine probe, fluorescence polarization; inhibition, % at 3.39 µM; 0.28% of 340,000 active; AID 492972;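 active means inhibition above the screen-wide average of all tested compounds plus 3 SD, cut at about 25% in these data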;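 further: 0% = enzyme with DMSO only and 100% = wells lacking PAFAH1B3 protein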
# Target sequence (Q15102 whole entry, looked up): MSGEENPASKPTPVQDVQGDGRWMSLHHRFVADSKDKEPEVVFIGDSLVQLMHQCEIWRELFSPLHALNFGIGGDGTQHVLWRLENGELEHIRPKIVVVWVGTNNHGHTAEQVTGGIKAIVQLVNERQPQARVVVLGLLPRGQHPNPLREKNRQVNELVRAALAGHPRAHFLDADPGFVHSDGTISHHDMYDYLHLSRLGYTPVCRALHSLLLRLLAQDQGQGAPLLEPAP
# GSTO1 counter: blocks human GSTO1 in RBBP9 counter-screen. recombinant GSTO1, activity-based probe fluorescence polarization. inhibition, % at 5.96 µM. 1.1% of 300,000 active;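 active means inhibition above the campaign mean inhibition plus 3 SD, cut at about 35% in these data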;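 further: 0% = GSTO1-1 with DMSO and 100% = wells lacking GSTO1-1 enzyme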
# Fam108B counter: Fam108B inhibition, counter-screen for RBBP9 inhibitors; AID 1947; 0.33% of 300,000 active; recombinant Fam108B, FP-Rh probe fluorescence polarization; inhibition, % at 9.51 µM;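 active means inhibition above the screen mean inhibition plus 3 SD, computed separately per campaign, cut at about 18% in these data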;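 further: inhibitors lower polarization as less probe binds the enzyme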
# LYPLA1 inh: blocks human lysophospholipase 1, a PME1 counter-screen; 0.16% of 320,000 active; inhibition, % at 5.9 µM; recombinant LYPLA1, FP-Rh probe fluorescence polarization; O75608;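 active means inhibition above the mean of all tested compounds plus 3 SD, set per campaign, cut at about 14% in these data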;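 further: inhibitors block serine hydrolase probe labeling of LYPLA1 so polarization falls; 0% = enzyme with DMSO and 100% = wells lacking LYPLA1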
# Target sequence (O75608 whole entry, looked up): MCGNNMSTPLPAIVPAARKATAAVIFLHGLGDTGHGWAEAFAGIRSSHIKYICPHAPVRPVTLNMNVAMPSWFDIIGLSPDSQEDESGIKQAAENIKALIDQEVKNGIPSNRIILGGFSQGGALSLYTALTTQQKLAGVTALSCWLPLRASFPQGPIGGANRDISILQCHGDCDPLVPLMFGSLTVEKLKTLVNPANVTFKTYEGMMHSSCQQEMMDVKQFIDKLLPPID
# pPAFAH FP inh: inhibitors of human plasma PAF acetylhydrolase (pPAFAH). Q13093. recombinant pPAFAH, FP-rhodamine probe fluorescence polarization. inhibition, % at 3.39 µM. 1.5% of 330,000 active. AID 463082;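 active means inhibition above the mean inhibition across the screen plus 3 SD, cut at about 25% in these data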;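 further: inhibitors block binding of the rhodamine activity-based probe so polarization drops; 0% = enzyme with DMSO and 100% = wells lacking pPAFAH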
# PAD4 inh: blocks human protein arginine deiminase 4 | Q9UM07 | recombinant PAD4, RCA probe fluorescence polarization | inhibition, % at 6.36 µM | 0.41% of 330,000 active;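 active means percent inhibition above a cutoff equal to the mean of all tested compounds plus 3 SD, cut at about 15% in these data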;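 further: 0% = PAD4 with RCA probe and DMSO and 100% = probe without PAD4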
# Target sequence (Q9UM07 whole entry, looked up): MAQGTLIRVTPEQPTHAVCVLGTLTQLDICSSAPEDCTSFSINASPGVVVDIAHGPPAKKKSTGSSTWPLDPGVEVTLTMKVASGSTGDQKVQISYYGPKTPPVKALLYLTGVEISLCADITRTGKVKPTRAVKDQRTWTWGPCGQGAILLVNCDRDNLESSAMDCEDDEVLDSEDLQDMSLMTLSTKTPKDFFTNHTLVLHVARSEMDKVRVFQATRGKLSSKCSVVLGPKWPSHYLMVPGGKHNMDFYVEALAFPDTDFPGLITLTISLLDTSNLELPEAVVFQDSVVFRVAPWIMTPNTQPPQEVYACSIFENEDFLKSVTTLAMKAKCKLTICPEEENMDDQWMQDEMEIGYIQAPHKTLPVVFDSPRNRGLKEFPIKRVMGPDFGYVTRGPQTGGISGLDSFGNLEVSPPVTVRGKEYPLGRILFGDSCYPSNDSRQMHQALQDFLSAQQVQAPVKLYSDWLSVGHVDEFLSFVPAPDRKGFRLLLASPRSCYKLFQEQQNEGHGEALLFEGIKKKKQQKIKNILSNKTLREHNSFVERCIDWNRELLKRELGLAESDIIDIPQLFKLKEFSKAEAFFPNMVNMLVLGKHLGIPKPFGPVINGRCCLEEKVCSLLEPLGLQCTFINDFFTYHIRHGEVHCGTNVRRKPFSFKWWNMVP
# An asterisk follows results filed as active; x = no result given. Only part of the results is shown. The share of hits here may be higher or lower than overall.
# Order of results – PAFAH2 FP inh, PAFAH1B2 inh, PAFAH1B3 inh, GSTO1 counter, Fam108B counter, LYPLA1 inh, pPAFAH FP inh, PAD4 inh
Cc1cc(C)c2nc(NCCCNC(=S)NCCCN(C)C)c(C#N)cc2c1
  -5, -3, 2, 2, -5, -3, -2, 1
NS(=O)(=O)c1cccnc1Nc1cccc(Cl)c1Cl
  0, 5, 5, -3, -6, 0, 7, -8
COc1ccc(-c2ccc(NS(=O)(=O)c3cccc([N+](=O)[O-])c3)cc2)nn1
  9, 4, 2, -2, 2, -2, 7, 2
Cc1ccc(CNC(=O)C2(S(=O)(=O)c3ccccc3)CC=CC2)cc1
  2, 7, 4, 21, -3, -2, 4, 0
O=C(c1cccs1)N1CCCC(c2nc3c(nnn3Cc3ccccc3Cl)c(=O)[nH]2)C1 (stereo unspecified)
  8, 4, 4, 5, -1, 0, 4, 3
COc1ccc(CC(=O)Nc2cc(S(=O)(=O)N3CCCCC3)ccc2C)cc1OC
  2, 4, 14, 5, 2, 1, 5, -3
CN(C)CCNC(=O)CCCNC(=O)Cn1cnc2sc3c(c2c1=O)CCCC3
  6, 2, 4, 3, -1, 2, 2, 3
Cn1c(=O)c2c(nc3n2CC(O)CN3c2ccc(O)cc2)n(C)c1=O (stereo unspecified)
  -1, 6, 6, 4, 1, 0, -1, -1
Cc1nn(-c2ccccc2)c(C)c1/C=N/n1c(-c2ccccc2Br)n[nH]c1=S
  -2, 5, -3, -15, 4, -4, 12, 0
O=C(N/N=C/c1c[nH]c2ccccc12)c1cc(-c2ccccc2)n[nH]1
  5, 8, 17, -6, 9, 0, 12, 4
COc1ccc(-c2cnnn2-c2ccc(NC(=O)/C=C/c3ccc(OC)c(OC)c3)cc2)cc1
  -34, -5, -13, -50, -39, -41, -45, -3
CN1CCN(S(=O)(=O)c2cccc(C(=O)Oc3cccc(C#N)c3)c2)CC1
  -2, 14, 3, 1, 3, -1, 1, 4
N#C/C(=C\Nc1ccccc1O)c1nc2ccccc2o1
  0, 2, 2, -17, 16, -7, 16, 2
Cc1cc(S(=O)(=O)Nc2ccc3cn[nH]c3c2)c(C)cc1Cl
  5, 8, 0, 2, -3, -6, 6, 0
O=C1CCCN1c1ccc(CNS(=O)(=O)c2ccc(F)cc2)cc1
  10, 4, 14, -1, 0, 1, 12, 4
CCOC(=O)c1c(N)sc2c(OCC)c(Br)ccc12
  5, 6, 5, 4, 3, 3, 15, 1
O=C(COc1ncnc2ccccc12)N1CCN(S(=O)(=O)c2ccc(Cl)cc2)CC1
  -4, 12, 1, 3, -5, -3, 0, 1
CCOC(=O)c1ccc(NC(=O)Nc2ccc3c(c2)OCCO3)cc1
  0, 2, 5, -20, 10, -7, 8, -1
CCCCNc1ccc(S(=O)(=O)c2cccc([N+](=O)[O-])c2)cc1[N+](=O)[O-]
  -6, 10, 9, -1, 3, -1, 2, 2
CCN(Cc1nc2cc(Cl)ccc2c(=O)[nH]1)C(=O)C1CC(=O)N(c2cccc3ccccc23)C1 (stereo unspecified)
  -3, 0, 2, x, x, 1, 8, 1
N#C/C(=C\Nc1ccc2c(c1)OCCO2)c1nc(-c2ccccc2)cs1
  13, 1, -1, -2, -5, -5, -2, -6
CC1CC(=O)C2=C(C1)Nc1ccccc1N(C(=O)COc1ccccc1)C2c1ccco1 (stereo unspecified)
  -4, 5, 8, 2, -2, 0, 2, -1
COc1cccc(NC(=O)Nc2c(C)n(C)n(-c3ccccc3)c2=O)c1
  8, 7, -2, -4, 2, -2, 1, 5
C/C(N)=C(/C#N)C(=O)COC(=O)c1ccc(C)c(S(=O)(=O)N2CCCCC2)c1
  -6, 3, 4, -2, -1, -1, 6, 1
Cc1ccc(C)c(S(=O)(=O)Nc2ccc3sc(C)nc3c2)c1
  5, 6, 6, -1, 8, -2, 4, 5
Cn1c(=O)c2c(nc3n2CC(O)CN3c2ccccc2)n(C)c1=O (stereo unspecified)
  -2, -4, 0, 12, -2, -1, 0, -7
COc1cc(OC)c(NC(=O)CC(=O)Nc2cc(Cl)c(OC)cc2OC)cc1Cl
  6, 2, 9, 19, 5, -5, 2, -2
Cc1cccc(C(C)C)c1NC(=O)COC(=O)c1cc2ccccc2oc1=O
  14, -2, -1, x, x, 3, -5, 1
CC1(C)OC(=O)C2(Cc3ccccc3N3CCCCC32)C(=O)O1 (stereo unspecified)
  -6, 0, 0, 1, 1, 5, -3, -4
CCC(=O)Nc1cccc(NC(=O)COc2ccc(OC)cc2)c1
  -4, 5, 7, 9, -2, -1, -8, -2

# Structures listed so far with bromine (two):
# Order of results – PAFAH2 FP inh, PAFAH1B2 inh, PAFAH1B3 inh, GSTO1 counter, Fam108B counter, LYPLA1 inh, pPAFAH FP inh, PAD4 inh
Cc1nn(-c2ccccc2)c(C)c1/C=N/n1c(-c2ccccc2Br)n[nH]c1=S
  -2, 5, -3, -15, 4, -4, 12, 0
CCOC(=O)c1c(N)sc2c(OCC)c(Br)ccc12
  5, 6, 5, 4, 3, 3, 15, 1

# Carrying on.
# Order of results – PAFAH2 FP inh, PAFAH1B2 inh, PAFAH1B3 inh, GSTO1 counter, Fam108B counter, LYPLA1 inh, pPAFAH FP inh, PAD4 inh
Cc1c(C=O)c2ccccn2c1C(=O)c1ccc(F)cc1
  12, -1, -2, 39*, 1, -1, 4, -3
O=C(NCc1ccccc1Cl)C1CCN(S(=O)(=O)c2ccc(F)cc2)CC1
  8, 0, 1, 4, 1, -1, 2, -1
O=[N+]([O-])c1ccc(Cl)c(S(=O)(=O)Nc2ccc(-c3ccc(N4CCCC4)nn3)cc2)c1
  15, 1, 8, 16, 1, -1, 18, 2
CCOC(=O)c1cc(Br)c(=O)n2ccccc12
  -2, 0, 6, 6, 4, -2, -2, -2
CCOc1ccc2[nH]c3c(N4CCN(c5ccccn5)CC4)ncnc3c2c1
  13, 9, 3, -6, 15, -1, 44*, 5
N#CC1=C(N)N(c2ccccc2C#N)C2=C(C(=O)CCC2)C1c1ccsc1 (stereo unspecified)
  -2, 2, 9, 4, -1, 3, 8, 0
COc1ccc(N(C(C)=O)S(=O)(=O)c2cccc3cccnc23)cc1
  2, 0, 7, 1, 0, 3, 2, 4
CC1CCCC(C)N1C(=O)c1ccccc1Nc1ccc(SC(F)F)cc1 (stereo unspecified)
  -3, 4, 12, 6, 4, 2, 8, 0
O=C1CCc2cc(S(=O)(=O)N3CCN(Cc4ccc5c(c4)OCO5)CC3)ccc2N1
  -9, 4, 7, 3, -3, 0, 11, -1
CC1=Nc2ccccc2N=C(NC(=O)CN2CCN(c3ccc(F)cc3)CC2)C1c1ccccc1 (stereo unspecified)
  x, x, x, 3, 3, 2, 6, -4
O=C(N[C@@H](Cc1ccccc1)C(=O)NCCc1c[nH]c2ccccc12)c1ccco1
  12, 4, -1, -3, -4, 1, 2, -2
Cc1ccc(S(=O)(=O)N(C)C)cc1NC(=O)COC(=O)c1ccc2c(c1)OCCO2
  64*, 9, 6, 8, -2, -1, 11, -2
Cc1ccc(S(=O)(=O)N2CCC(C(=O)N/N=C/c3ccccc3[N+](=O)[O-])CC2)cc1
  6, 14, 10, 7, 5, -3, 2, 2
NC(=O)COC(=O)c1c2c(nc3ccccc13)CCCCC2
  1, -4, 2, 0, -2, 0, 1, -1
CC(=O)c1cccc(Oc2cc(NN3CCCCC3)c([N+](=O)[O-])cc2[N+](=O)[O-])c1
  7, 5, -5, 44*, 3, 2, 3, 6
O=C(NNC(=S)Nc1ccccc1Cl)c1ccccc1Cl
  2, 5, -3, 2, 5, 1, 2, 0
CCN(CC)S(=O)(=O)c1cc(NC(=O)CN2CCN(c3ccccn3)CC2)ccc1C
  5, 10, 5, -2, -3, -1, 1, 0
O=C(NCC1CC1)C1(S(=O)(=O)c2ccccc2)CC=CC1
  4, -1, -2, 1, -4, -1, 1, -1
Cc1ccccc1NS(=O)(=O)c1ccc(C(=O)N2CCCCCC2)cc1
  13, -1, -3, -4, 0, 0, 25*, -6
COc1cc(OC)c(OC)cc1/C=N/n1c(C)nnc1C
  1, 4, 17, 4, 2, 3, 2, -1
Cc1cc(S(=O)(=O)Nc2ccc(C(=O)NCCCN3CCOCC3)cc2)ccc1F
  7, 7, 3, 9, 4, 2, 3, 4
COC(=O)C(C)n1cnc2c(nnn2-c2ccc(OC)cc2)c1=O (stereo unspecified)
  5, 5, 10, 6, 0, 0, 0, 1
C[C@H](NC(=O)c1nc[nH]c1C(=O)N[C@@H](C)c1ccccc1)C(=O)OC(C)(C)C
  0, 17, 7, 4, -4, -1, 9, 2
CCn1c(=O)n(CC)c2cc(S(=O)(=O)Nc3cc(C)cc(C)c3C#N)ccc21
  8, 5, -2, 1, 1, -1, 12, 5
Cc1ccc(C)c(CN2C(=O)CSc3ccc(C(=O)NCC(C)CN4CCC(C)CC4)cc32)c1 (stereo unspecified)
  -3, -1, 9, 2, 2, -1, -2, 0
COc1ccc(C(=O)NCCCN2CCOCC2)cc1OC
  4, 1, -1, 1, 3, -1, 5, 0
CC(C)NC(=O)NC(=O)COC(=O)Cc1c(F)cccc1Cl
  -1, 0, -5, -1, 0, 0, 7, 1
CN(CC(=O)Nc1cc(S(=O)(=O)N2CCCC2)ccc1Cl)Cc1cccs1
  3, -2, -2, 3, 0, -6, 14, -1
CC(=O)C1=C(C)Nc2ncnn2C1c1cccc(OCc2ccccc2)c1 (stereo unspecified)
  4, 9, 3, 12, -1, 1, 10, -3
CC(NC(=O)Cn1nc(C(=O)O)c2ccccc2c1=O)C12CC3CC(CC(C3)C1)C2 (stereo unspecified)
  -2, 16, -1, 3, -2, -1, -1, 1
CCn1c2ccccc2c2cc(/C=N/n3c(-c4cc(C)[nH]n4)n[nH]c3=S)ccc21
  27, 11, 25, -13, -6, 0, 7, 2
CCN(CC)CCn1c(NC(=O)c2ccc(C(F)(F)F)cc2)nc2ccccc21
  4, 3, 0, -4, -1, -2, 13, -4
COc1ccc(Br)cc1/C=N/n1c(C)nnc1C
  2, 2, 8, 23, -1, -1, -6, 2
COc1ccc(CC(=O)Nc2cc(S(=O)(=O)N3CCCC3)ccc2Cl)c(OC)c1
  1, 0, 3, x, x, -1, 3, 2
O=C(OC1CCCCC1=O)c1cc(S(=O)(=O)N2CCOCC2)ccc1F (stereo unspecified)
  -1, 3, 1, 2, -3, -2, 5, -7
COc1ccc(/C=N/NC(=S)Nc2cc(S(=O)(=O)N3CCOCC3)ccc2N2CCOCC2)cc1O
  4, 5, 1, -17, 0, -2, 23, 3
CSC1=N/C(=C\c2ccccc2Cl)C(=O)N1N(C)C
  4, 4, -2, -8, 4, 1, -4, -1
O=S(=O)(Nc1ncnc2sc3c(c12)CCC3)c1cc(F)ccc1F
  0, 3, 6, -6, -2, -4, 30*, -2
CCCC(C)NC(=O)C1CCN(S(=O)(=O)c2ccccc2)CC1 (stereo unspecified)
  4, 6, 6, 1, 2, -4, 2, 3
O=S(=O)(Nc1cccc(-c2ccc(N3CCCCCC3)nn2)c1)c1cccc(F)c1
  5, 7, -3, -6, -6, -13, 27*, -2
COc1ccccc1NS(=O)(=O)c1ccc(-c2cnc(C3CC3)o2)cc1
  24, 4, 9, -1, -2, -7, -5, 0
CC1=C(C(=O)Nc2cccnc2)C(c2ccncc2)n2nnnc2N1 (stereo unspecified)
  0, 5, 8, -4, 4, -1, 3, -4

# Compound profiles (already shown). Order of values: PAFAH2 FP inh | PAFAH1B2 inh | PAFAH1B3 inh | GSTO1 counter | Fam108B counter | LYPLA1 inh | pPAFAH FP inh | PAD4 inh
# COc1ccccc1NS(=O)(=O)c1ccc(-c2cnc(C3CC3)o2)cc1 across the screens: 24 | 4 | 9 | -1 | -2 | -7 | -5 | 0
# COc1ccc(Br)cc1/C=N/n1c(C)nnc1C across the screens: 2 | 2 | 8 | 23 | -1 | -1 | -6 | 2
# O=C(OC1CCCCC1=O)c1cc(S(=O)(=O)N2CCOCC2)ccc1F (stereo unspecified) across the screens: -1 | 3 | 1 | 2 | -3 | -2 | 5 | -7
# COc1ccc(/C=N/NC(=S)Nc2cc(S(=O)(=O)N3CCOCC3)ccc2N2CCOCC2)cc1O across the screens: 4 | 5 | 1 | -17 | 0 | -2 | 23 | 3

# Screening results from PubChem BioAssay.
